Source: PubChem
ClpP mod = qHTS Assay for Activators of ClpP; ATP-dependent Clp protease proteolytic subunit (Bacillus subtilis (strain 168)), P80244; purified B. subtilis ClpP, FRET peptide cleavage, 20 min; Potency, µM (top dose mostly 57.5 µM), for the others: at the highest dose activity change, negative = active; 340,000 tested, 1.9% active; AID 651965, 2013; active = well fitted falling curve with a large enough effect; inconclusive = small, poorly fitted or top-dose-only effect; inactive = no such curve, though single readings can be large or run the other way; note: potency is the fitted concentration of half-maximal effect; the source files actives as falling curves though it sought activators and does not explain the sign; nearly all actives have a fitted effect of over 65% in size; many hits overshoot -100%
Target sequence (P80244 whole entry, looked up): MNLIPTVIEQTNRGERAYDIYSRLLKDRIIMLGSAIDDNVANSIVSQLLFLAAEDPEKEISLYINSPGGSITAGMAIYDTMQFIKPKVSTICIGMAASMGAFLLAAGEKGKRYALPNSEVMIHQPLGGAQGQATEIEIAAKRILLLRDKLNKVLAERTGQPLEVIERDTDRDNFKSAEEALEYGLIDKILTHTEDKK
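Purified B. subtilis ClpP, 10 microg/mL final in Tris/HCl pH8 with KCl, BSA, glycerol and Tween-20, cleaved an Abz/nitrotyrosine-quenched decapeptide. Fluorescence (ex 320, em 430) was read at 0 and 20 min at room temperature. Delta was normalized to 5.8 microM ADEP and DMSO/no-enzyme controls.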
Sfp PPTase inh = inhibitors of Bacillus subtilis Sfp phosphopantetheinyl transferase; Potency, µM, for inactives: max response, negative = inhibition, actives largely listed as inhibitors; Biochemical Sfp PPTase activity, qHTS; 310,000 tested, 3.5% active; Q9F4F7; AID 1490; active = well fitted inhibition curve with a large enough effect; inconclusive = small, poorly fitted or top-dose-only effect, or another doubt; inactive = no such curve, though single readings can be large or run the other way;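 note: the enzyme is Sfp with the accession as filed and its product quenches rhodamine fluorescence; potency is the fitted concentration of half-maximal effect; 0% = enzyme reaction without inhibitor and -100% = no enzyme wells; top concentration of the series not given in the record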
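Fluorescence-quenching assay: 15 nM Sfp-PPTase preincubated 15 min at room temperature with compound, then 5 uM rhodamine-CoA and 12.5 uM BHQ-2-labelled YbbR peptide added. Fluorescence (ex 525/em 598 nm) read at start and after 30 min; difference gives rate.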
CtBP-E1A inh = CtBP/E1A binding inhibition; 340,000 tested, 0.49% active; AlphaScreen GST-E1A/His-CtBP binding, 1536-well; active compounds read low; control for the full effect not named in the record; activity change, % (no concentration beside the values); AID 651724; in the data active means activity change below about -65%; inconclusive means about -30% to -65%; inactive means above about -30%; note: % is set by controls: 0 for no effect and ±100 for the full control effect
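In 5 uL wells, 23 nL compound meets equimolar GST-E1A and His-CtBP (5X stock 125 nM each) for 2 h, 37 °C. Beads (5X, 50 ug/mL) then 1 h, 37 °C, dark.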
TRPV1 potentiator = potentiators of human vanilloid receptor 1 (TRPV1); potentiation, % at 8.33 µM; AID 540277; TRPV1-expressing cells, Fluo-8 calcium influx, capsaicin EC20 potentiation; host cell line not named in the record; control for the full effect not named in the record; 320,000 tested, 0.02% active; active means potentiation above 80%; inconclusive means 30% to 80%; inactive means below 30%; note: 0% is about no effect
Target sequence (Q8NER1 whole entry, looked up): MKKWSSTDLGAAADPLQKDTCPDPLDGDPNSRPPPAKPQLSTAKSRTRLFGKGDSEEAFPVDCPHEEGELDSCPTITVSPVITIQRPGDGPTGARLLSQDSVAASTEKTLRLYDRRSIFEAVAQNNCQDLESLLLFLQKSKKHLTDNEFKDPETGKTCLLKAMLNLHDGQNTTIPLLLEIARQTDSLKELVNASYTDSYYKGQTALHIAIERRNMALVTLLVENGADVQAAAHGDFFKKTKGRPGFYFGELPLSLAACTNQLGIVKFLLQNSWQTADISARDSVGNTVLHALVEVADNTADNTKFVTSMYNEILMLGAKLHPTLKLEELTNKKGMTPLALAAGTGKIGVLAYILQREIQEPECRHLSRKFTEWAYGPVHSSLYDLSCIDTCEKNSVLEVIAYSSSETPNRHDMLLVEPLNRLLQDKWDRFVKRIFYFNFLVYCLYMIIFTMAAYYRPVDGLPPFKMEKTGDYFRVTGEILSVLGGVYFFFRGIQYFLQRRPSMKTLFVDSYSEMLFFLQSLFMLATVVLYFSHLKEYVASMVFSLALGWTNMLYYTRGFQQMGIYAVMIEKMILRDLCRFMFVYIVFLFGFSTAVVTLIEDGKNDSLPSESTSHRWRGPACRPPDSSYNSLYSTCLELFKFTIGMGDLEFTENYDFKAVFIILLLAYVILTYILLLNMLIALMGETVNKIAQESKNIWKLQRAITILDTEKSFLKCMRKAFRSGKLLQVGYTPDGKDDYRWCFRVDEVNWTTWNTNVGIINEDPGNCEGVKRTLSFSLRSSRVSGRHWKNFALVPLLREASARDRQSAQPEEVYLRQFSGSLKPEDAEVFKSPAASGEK
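Cells expressing TRPV1 were dye-loaded with Fluo-8 and read kinetically: 10 s baseline, 3 min after compound (agonist portion), then 2 min after EC20 capsaicin (allosteric enhancer portion). Calcium-bound dye fluorescence at 480/520 nm.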
gsp agonist = activates gsp, the McCune-Albright syndrome mutation. gsp mutant cells, cAMP HTRF, 30 min; control for the full effect not named in the record. Potency, µM (doses to about 76.9 µM), without a hit: top-dose activation (cAMP increase), most hits filed as activators. 340,000 tested, 0.13% active. AID 624287; active = well fitted activation curve with a large enough effect; inconclusive = small, poorly fitted or top-dose-only effect, or another doubt; inactive = no such curve, though single readings can be large or run the other way; cell line not stated here;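 note: phosphodiesterase inhibitor Ro 20-1724 added with compounds to block cAMP breakdown; potency is the fitted concentration of half-maximal effect; nearly all actives have a fitted effect of over 60% in size; about a fifth of the inactives were tested at one dose only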
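Cells stably selected in G418 were plated at 2000/well, grown 16-24 hr, then given compounds in DMSO with the PDE inhibitor […] (300 uM solution added) for 30 min at 37C; cAMP was read by HTRF.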
gsp antag = antagonists of gsp mutant (McCune-Albright syndrome). AID 624288. gsp-mutant cells, cAMP HTRF, 30 min; control for the full effect not named in the record. Potency, µM (doses to about 76.9 µM), for inactives: top-dose activity change, negative = inhibition, most hits filed as inhibitors. 340,000 tested, 0.4% active; active = falling curve of any shape with a large fitted effect; inconclusive = falling curve, mostly with a smaller effect; inactive = flat or rising curve; cell line not stated here;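 note: intracellular cAMP measured with PDE inhibitor Ro 20-1724 present during compound exposure; potency is the fitted concentration of half-maximal effect; % is set by controls: 0 for no effect and ±100 for the full control effect; nearly all actives have a fitted effect of over 65% in size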
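Cells in G418 medium, seeded 16-24 h, 37C; buffer exchange to DPBS + 1 mM CaCl2, 0.5 mM MgCl2, 0.05% BSA; cpds in DMSO + […] (300 uM stock), 30 min 37C; HTRF cAMP detection.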
Menin-MLL FL inh = inhibitors of human menin-MLL interaction, wild-type MLL peptide. Fluorescence polarization, fluorescein-MLL peptide displacement from menin. FP activity change, % at 61.4 µM. 290,000 tested, under 10 active; inconclusive = falling polarisation curve, or a change in total fluorescence; inactive = total fluorescence flat and polarisation flat or rising; no compound was filed as active; the % refers to the polarisation; negative = inhibition;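 note: % of control where 0% means no effect; inhibitors lower the polarisation; unlabelled MLL peptide was the positive control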
Starred values were filed as active, the others as inactive; ? = inconclusive; . = not tested or not shown; & = joins results of further samples; [ ] = remark or other dose. Rows were taken by chance; any-hit rate near 5.3%.

Second line of a record – ClpP mod	Sfp PPTase inh	CtBP-E1A inh	TRPV1 potentiator	gsp agonist	gsp antag	Menin-MLL FL inh
Nc1c(-c2n[nH]c(=S)n2-c2ccc(Cl)cc2Cl)cnn1-c1ccccc1
→ .	3%	8	-9	-12%[15.4 µM]	1%	0.0
Cc1ccc(C(=O)COC(=O)CNC(=O)CN2C(=O)c3ccccc3C2=O)cc1
→ 0.2%	3%	-3	2	-36%[inhibitor]	1%	0.0
Cc1cccc(C(=O)OC2CCCN(C)C2)c1C (configuration not stated)
→ -0.5%	-8%	2	0	-9%[15.4 µM]	-17%	-1.4
CN(C)c1ccc(/C=N/NC(=O)c2ccc(CN3C(=O)c4cccc5cccc3c45)cc2)cc1
→ .	12%	.	-1	.	.	2.5
COCCCn1c(=O)c2ccccc2n(CC(=O)NC2CCCC2)c1=O
→ .	15%	3	1	20%[15.4 µM]	2%	5.3
COc1ccc(Cl)c(Cn2c(NCc3ccccn3)nc3c2c(=O)n(C)c(=O)n3C)c1
→ 1.5%	20%	-5	9	-45%[inhibitor]	7%	3.0
COCCCNc1oc(-c2ccccc2OC)nc1C#N
→ 11%	-21%	-22	-11	?	-1%	2.6
COC(=O)c1cc(C(=O)OCC(=O)N2c3ccccc3NC(=O)C2(C)C)cc([N+](=O)[O-])c1
→ -1.9%	2%	-9	-3	-19%	-16%	-1.7
COc1ccc(CCN2C(=O)CC(C(N)=O)SC2=Nc2ccccc2)cc1 (configuration not stated)
→ .	-6%	-2	-4	-15%[15.4 µM]	-1%	-1.3
O=C(NNC(=S)NC(=O)c1ccc(F)cc1)c1ccncc1
→ -22%	.	-8	.	17%	5%	.
COc1ccccc1NC(=O)c1ccc(N2CC3CC(C2)c2cccc(=O)n2C3)c(NC(=O)c2cccnc2)c1 (configuration not stated)
→ -1.3%	32µM*	-4	-10	8%	-6%	3.5
COCCn1c(SCC(=O)NCc2ccco2)nnc1C(C)C
→ -1.5%	-3%	5	6	-29%	4%	1.6
Cn1cnnc1SCc1ccc(C(=O)NN)cc1
→ .	-5%	0	2	0%[15.4 µM]	.	-0.8
O=C(COc1cccc(NC(=O)c2ccco2)c1)c1ccc(F)cc1
→ 0.9%	15%	-2	-9	9%	-7%	12
NNC(=O)c1cnn(-c2ccccc2)c1-n1cccc1
→ 2.7%	-5%	3	13	9%[15.4 µM]	7%	1.2
COc1ccc(CCNC(=O)C2CC(c3cccc(F)c3)=NO2)cc1 (configuration not stated)
→ -7.2%	-4%	.	23	22%	4%	3.3
COC(=O)c1sccc1NC(=O)CSc1ccccc1NS(=O)(=O)c1ccccc1Cl
→ 0.6%	9%	-9	?	-26%	?	-2.0
COc1ccc(-c2cc(C(=O)NCC3CCCO3)c3ccccc3n2)c(OC)c1 (configuration not stated)
→ .	2%	-2	?	2%	3%	-15
COc1ccc2[nH]c3c(c2c1)CCN1C(=O)C(CC(=O)NCc2ccc(OC)c(OC)c2)C[C@H](C(=O)N2CCOCC2)[C@@]31CCC1CCCC1 (some centres not stated)
→ 3.2%	.	-5	.	.	-11%	.
O=C1C=CC2C3C(=O)N(c4ccccc4)C(=O)C3C1N2Cc1ccccc1 (configuration not stated)
→ -2.6%	.	2	.	-9%	-14%	.

Shown as tab-separated lines: 13 of the compounds above
SMILES	ClpP mod	Sfp PPTase inh	CtBP-E1A inh	TRPV1 potentiator	gsp agonist	gsp antag	Menin-MLL FL inh
COCCCn1c(=O)c2ccccc2n(CC(=O)NC2CCCC2)c1=O	.	15%	3	1	20%[15.4 µM]	2%	5.3
COc1ccc(Cl)c(Cn2c(NCc3ccccn3)nc3c2c(=O)n(C)c(=O)n3C)c1	1.5%	20%	-5	9	-45%[inhibitor]	7%	3.0
COCCCNc1oc(-c2ccccc2OC)nc1C#N	11%	-21%	-22	-11	?	-1%	2.6
COC(=O)c1cc(C(=O)OCC(=O)N2c3ccccc3NC(=O)C2(C)C)cc([N+](=O)[O-])c1	-1.9%	2%	-9	-3	-19%	-16%	-1.7
COc1ccc(CCN2C(=O)CC(C(N)=O)SC2=Nc2ccccc2)cc1 (configuration not stated)	.	-6%	-2	-4	-15%[15.4 µM]	-1%	-1.3
O=C(NNC(=S)NC(=O)c1ccc(F)cc1)c1ccncc1	-22%	.	-8	.	17%	5%	.
COc1ccccc1NC(=O)c1ccc(N2CC3CC(C2)c2cccc(=O)n2C3)c(NC(=O)c2cccnc2)c1 (configuration not stated)	-1.3%	32µM*	-4	-10	8%	-6%	3.5
COCCn1c(SCC(=O)NCc2ccco2)nnc1C(C)C	-1.5%	-3%	5	6	-29%	4%	1.6
Cn1cnnc1SCc1ccc(C(=O)NN)cc1	.	-5%	0	2	0%[15.4 µM]	.	-0.8
O=C(COc1cccc(NC(=O)c2ccco2)c1)c1ccc(F)cc1	0.9%	15%	-2	-9	9%	-7%	12
NNC(=O)c1cnn(-c2ccccc2)c1-n1cccc1	2.7%	-5%	3	13	9%[15.4 µM]	7%	1.2
COc1ccc(CCNC(=O)C2CC(c3cccc(F)c3)=NO2)cc1 (configuration not stated)	-7.2%	-4%	.	23	22%	4%	3.3
COC(=O)c1sccc1NC(=O)CSc1ccccc1NS(=O)(=O)c1ccccc1Cl	0.6%	9%	-9	?	-26%	?	-2.0

Next section.
Second line of a record – ClpP mod	Sfp PPTase inh	CtBP-E1A inh	TRPV1 potentiator	gsp agonist	gsp antag	Menin-MLL FL inh
NC1(C(=O)O)CC1
→ 0.4%	56µM*	-11	.	.	8%	0.9&-0.3&1.0
Cc1cc(C(=O)N(C)Cc2ccc(Br)cc2)no1
→ -6.4%	6%	0	-16	-5%	4%	7.6
Cc1ccc(NC(=O)CN2CCC(NC(=O)C3CCCCC3)CC2)c(Br)c1
→ 0.2%	0%	.	16	-41%[inhibitor]	6%	-1.6
CNC(=O)/C(C#N)=C/c1ccc(OCCOc2ccccc2)cc1
→ -1.2%	9%	.	12	-21%	1%	1.5
NC(=O)CSc1ncc(-c2ccc([N+](=O)[O-])cc2)[nH]1
→ .	8%	-7	1	0%	5%	-5.9
Cc1nnsc1S(=O)c1ccc(Cl)c(Cl)c1 (configuration not stated)
→ 0.9%	3%	.	-1	-3%	-5%	-0.3
CCN(CC)C(=O)COc1ccc(S(=O)(=O)N2CCOCC2)cc1
→ -2.5%	13%	-3	7	-18%	6%	9.5
CC(=O)Nc1ccc(N=C(C2=C(O)c3ccccc3C2=O)c2ccccc2)cc1
→ 1.4%	-9%	.	-15	-29%	35µM*	-2.2
CCCN(CCC)C(=O)C1CCN(c2cc(C)nc3c(-c4ccc(OC)c(OC)c4)c(C)nn23)CC1
→ 0.9%	9%	-8	-3	?	1%	-2.6
Cc1ccc(C(=O)N/C(=C\c2ccc(Cl)cc2)C(=O)NCCCN2CCOCC2)cc1
→ -1.3%	-1%	7	-4	19%[15.4 µM]	3%	-0.9
C=CCOc1ccc(CNc2nn[nH]n2)cc1OC
→ -6.1%	13%	-14	7	-23%	7%	1.5
Cc1ccc(-c2ccc(=O)n(CC(=O)NCCC(C)C)n2)cc1
→ ?	12%	-5	-3	?	-1%	-0.8
COc1cccc(-c2c(C(=O)N/N=C/c3ccsc3)nnn2-c2nonc2N)c1
→ -4.7%	7%	0	?	11%	-6%	-2.6
CCOC(=O)C1=NN(c2ccc(Cl)cc2)C(c2ccccc2)CC1=O (configuration not stated)
→ -0.2%	-7%	-16	-7	0%	?	11
COC(=O)c1ccc(NC(=O)CN2C(=O)CC(C)S(=O)(=O)c3ccccc32)cc1 (configuration not stated)
→ -1.2%	9%	2	4	10%	-8%	-0.2
CN(C(=O)c1c[nH]c(=O)cc1C(F)(F)F)c1ccc(Cl)c(Cl)c1
→ .	8%	-2	-8	-1%	-5%	5.2
Cc1ccc(C)c(-c2cc(C(=O)Nc3cccnc3)c3ccccc3n2)c1
→ -2.1%	3%	-3	-2	-3%	-4%	-2.5
CCOC(=O)COc1ccc2c3c(c(=O)oc2c1)CCCC3
→ .	20%	5	7	2%	-2%	-2.0
COc1cc(OC)c(NC(=O)Cc2ccc(OC)c(S(=O)(=O)N3CCOCC3)c2)cc1Cl
→ -7.2%	14%	-3	-3	-12%	-9%	.
O=C(NCCc1ccc(Cl)cc1)C1CCC(=O)N1Cc1ccccc1Cl (configuration not stated)
→ -2.7%	22%	-7	-2	-3%	-2%	3.9
O=C(NC1CC1)c1ccccc1
→ -0.2%	.	-1	.	-35%	.	.
O=C(/C=C/Nc1ccc(F)cc1)c1ccc(Br)cc1
→ 0.5%	0%	.	-3	-7%	7%	-1.8
CNC(=S)NCc1ccc2[nH]c(C)cc2c1
→ -1.3%	-4%	.	20	-65%[inhibitor]	4%	0.7
COc1ccc(C(CC(=O)N2CCOCC2)c2c(OC)cc(OC)c3ccc(=O)oc23)cc1 (configuration not stated)
→ 3.7%	-7%&6%	5	-22	.	2%	-0.8&-2.4
O=C(COc1coc(CN2CCN(c3ccccc3)CC2)cc1=O)Nc1ccc(F)cc1
→ -3.4%	.	-10	?	-31%[inhibitor]	5%	.
O=C(Nc1cc(-c2ccccc2)nn1-c1ccccc1)c1ccccc1F
→ -8.1%	.	12	-9	-4%	?	.
O=C(N/N=C/c1ccc(-c2cccc([N+](=O)[O-])c2)o1)c1ccccc1O
→ .	?	-11	-3	-23%	50µM*	-1.2
CCOc1ccc(OCCC(=O)N(CC)CC(=O)Nc2ccccc2C(F)(F)F)cc1
→ -11%	.	4	4	-10%	-8%	.
